Compound activity deposited in PubChem BioAssay by National Center for Advancing Translational Sciences (NCATS).
VDR inh – Inhibitors of the vitamin D receptor (VDR): qHTS. Vitamin D3 receptor (Homo sapiens), P11473. AID 504847, 2011. actives 0.93% (n = 400,000). VDR-SRC2-3 peptide fluorescence polarization, 2 h. Potency, µM, without a hit: max response, negative = inhibition, usual class: inhibitors; active means well fitted inhibition curve with a large enough effect; inconclusive means small, poorly fitted or top-dose-only effect, or another doubt; inactive means no such curve, though single readings can be large or run the other way; further: series mostly up to about 120 µM
Target sequence (P11473 whole entry, looked up): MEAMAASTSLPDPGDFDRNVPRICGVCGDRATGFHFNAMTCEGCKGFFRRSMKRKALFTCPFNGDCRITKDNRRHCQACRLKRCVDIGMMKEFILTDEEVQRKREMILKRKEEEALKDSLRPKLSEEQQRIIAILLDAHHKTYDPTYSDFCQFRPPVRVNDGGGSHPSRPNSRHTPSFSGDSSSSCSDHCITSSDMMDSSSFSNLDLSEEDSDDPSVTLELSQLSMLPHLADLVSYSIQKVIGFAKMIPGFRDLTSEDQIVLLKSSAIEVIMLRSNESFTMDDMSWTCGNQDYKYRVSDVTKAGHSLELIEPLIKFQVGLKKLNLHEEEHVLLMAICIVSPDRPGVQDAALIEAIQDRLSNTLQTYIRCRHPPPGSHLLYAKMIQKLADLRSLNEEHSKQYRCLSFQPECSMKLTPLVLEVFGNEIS
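Inhibition of the VDR/SRC2-3 peptide interaction is quantified by fluorescence polarization. Compounds (23 nl, pintool) incubate with the reagents for 2 hours at ambient room temperature.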
Active calls of the source: *; u = inconclusive; & = joins results of further samples; [ ] = dose if it differs, or a comment. On the % scale 0 is the no-effect control and ±100 the full control effect; potency means the concentration at half of the fitted maximal effect.

| Structure | VDR inh |
| --- | --- |
| CN1CCc2nc(SCC(=O)Nc3ccc(OC(F)(F)F)cc3)c(C#N)c(-c3cccs3)c2C1 | u |
| COc1ccc(N2CCN(C(=O)COC(=O)CCOc3ccc(C)cc3)CC2)cc1 | 9% |
| COc1cc(NC(=O)NCC2CCN(Cc3ccccc3Cl)CC2)cc(OC)c1OC | 10%&-7% |
| CCCCOc1ccccc1NC(=O)C=C(C)C | 0% |
| COc1cccc(N(CC(=O)Nc2cccc(C(C)=O)c2)S(C)(=O)=O)c1 | 23% |
| COC(=O)c1sc(NC(=O)CC(C)C)c(C(=O)OC)c1C | 3% |
| Cc1cc(C(=O)Nc2ccc(C)c(C)c2)n(-c2ccccc2)n1 | -24% |
| Cc1ccc(Nc2nc(N)[nH]c(=O)c2N=O)cc1 | 14% |
| COc1ccc(NC(=O)c2c(NCc3ccc(C)o3)sc3c2CCC(C)C3)cc1 (stereo unspecified) | u |
| COC(=O)c1ccc(CNC(=O)CCc2c[nH]c3ccccc23)cc1 | -12% |
| O=C(CCC(=O)c1ccc[nH]1)c1ccc(Cl)cc1 | 0% |
| COc1cc(NC(=S)NCCSc2ccc(C)cc2)cc(OC)c1 | -3% |
| COc1ccc(C2CC(=O)c3c([nH]c(C(=O)OC4CCCC4)c3C)C2)cc1OC (stereo unspecified) | -19% |
| COc1cc(C2c3c(-c4cc(C)ccc4O)n[nH]c3C(=O)N2Cc2cccnc2)cc(OC)c1OC (stereo unspecified) | 17% |
| Cc1cc(C)cc(C(=O)NCC(=O)OCc2c(C)noc2C)c1 | 4% |
| CC1CCN(c2ccc(C(F)(F)F)cc2N)CC1 | 3% |

Four compounds already listed, sorted by the number in VDR inh, lowest first.
| Structure | VDR inh |
| --- | --- |
| COc1ccc(C2CC(=O)c3c([nH]c(C(=O)OC4CCCC4)c3C)C2)cc1OC (stereo unspecified) | -19% |
| O=C(CCC(=O)c1ccc[nH]1)c1ccc(Cl)cc1 | 0% |
| Cc1cc(C)cc(C(=O)NCC(=O)OCc2c(C)noc2C)c1 | 4% |
| COc1cc(C2c3c(-c4cc(C)ccc4O)n[nH]c3C(=O)N2Cc2cccnc2)cc(OC)c1OC (stereo unspecified) | 17% |

(list continues)
| Structure | VDR inh |
| --- | --- |
| Cc1cc(C)c2c(CC(=O)Nc3ccc(S(=O)(=O)N4CCCC(C)C4)cc3)coc2c1 (stereo unspecified) | 11% |
| COC(=O)/C(C#N)=C/c1c(Oc2cc(C)cc(C)c2)nc2c(C)cccn2c1=O | -17% |
| Cc1ccc(-n2ncc3c(=O)[nH]c(SCC(=O)NCC4CCCO4)nc32)cc1 (stereo unspecified) | -2% |
| CC(NC(=O)C(C)(C)C)C(c1cccs1)N1CCN(Cc2ccccc2)CC1 (stereo unspecified) | -8% |
| COc1ccc(CCNS(=O)(=O)CCNC(=O)c2ccc3c(c2)OCO3)cc1OC | 25% |
| O=C1OC(/C(=C\Nc2cc(Cl)ccc2O)[N+](=O)[O-])c2ccccc21 (stereo unspecified) | -4% |
| O=C(CSc1ncc2c(n1)-c1cc(Cl)ccc1N(Cc1ccccc1)S2(=O)=O)Nc1ccc(F)cc1F | -3% |
| CCCCCOc1ccc(CSC(=N)N)cc1[N+](=O)[O-] | 7% |
| Cn1nnnc1SCc1ccc(Cl)cc1 | -9% |
| Cc1ccccc1/C=C/C12NC(=O)CN1c1ccccc1C2(C)C (stereo unspecified) | -16% |
| CCC(C)n1c(SCC(=O)N(CC)c2c(N)n(Cc3ccccc3)c(=O)[nH]c2=O)nc2ccccc2c1=O (stereo unspecified) | 3% |
| CC(=O)N1CCc2cc(CNC(=O)Cc3ccc(F)cc3)ccc21 | 4% |
| Cc1ccccc1CNC(=O)c1ccc(CS(=O)Cc2ccc(Cl)cc2)o1 (stereo unspecified) | 8% |
| COc1ccc([N+](=O)[O-])cc1NC(=O)C(C)c1ccccc1 (stereo unspecified) | -4% |
| CC1CCCN(C(=O)COC(=O)C2=COCCO2)C1 (stereo unspecified) | 5% |
| O=C(Nc1nonc1-c1ccc(Cl)cc1)c1ccccc1F | -2% |
| Cn1c(C(=O)N2CCC(C(=O)NCc3ccccc3)CC2)cc2sccc21 | 1% |
| COc1cc2ncnc(NCCCN3CCOCC3)c2cc1OC | 12% |
| CCNc1ncc2ncc(=O)n(Cc3cccc(OC)c3)c2n1 | 50µM* |
| CCCOC(=O)c1ccc(NC(=O)c2cc(OC)c(OC)c(OC)c2Br)cc1 | -5% |
| Nc1ncnc(Nc2cc(C(F)(F)F)cc(C(F)(F)F)c2)n1 | -12% |
| COc1cc(C(=O)N2CCN(C(=O)c3ccco3)CC2)cc(OC)c1OC | 16% |
| Cc1ccc(Cc2nnc(SCC(=O)Nc3ccccc3Cl)[nH]c2=O)cc1 | -11% |
| CCOC(=O)C1Nc2c(cc(C(F)(F)F)cc2[N+](=O)[O-])C2c3ccccc3CC12 (stereo unspecified) | -1% |

Shown with each value named: entries from further up.
> COc1cc(C(=O)N2CCN(C(=O)c3ccco3)CC2)cc(OC)c1OC
  VDR inh: 16%

> Cc1ccc(Cc2nnc(SCC(=O)Nc3ccccc3Cl)[nH]c2=O)cc1
  VDR inh: -11%

The results go on:
| Structure | VDR inh |
| --- | --- |
| CCCCNc1cnn(-c2ccccc2)c(=O)c1Cl | -15% |
| CCCC1OC2CC3C4CCC5=CC(=O)C=CC5(C)C4C(O)CC3(C)C2(C(=O)CO)O1 (stereo unspecified) | -10% |
| COc1ccc(NC(=S)NCCCN2CCCC2=O)c(OC)c1 | -7% |
| CCOC(=O)Cn1cc(/C=N/NC(=O)c2cc3ccccc3o2)c2ccccc21 | 9% |
| COc1cccc(NC(=O)CSc2nc3scc(C)c3c(=O)[nH]2)c1 | -10% |
| CCOC(=O)c1cccc(NC(=O)c2ccc(F)cc2F)c1 | -13% |
| O=C(CN1C(=O)CSC1=O)N1CCc2ccccc2C1 | -6% |
| CN(C)c1ccc(/C=N/N=C2/SC(CC(=O)O)C(=O)N2c2ccc(O)cc2)cc1 (stereo unspecified) | 6% |

(list continues)
SMILES | VDR inh
CCOc1nc(C)ccc1-c1noc(-c2cccnc2)n1 | -18%
CC(=O)Nc1cccc(/C(C)=N/NC(=O)c2ccc3c(c2)OCO3)c1 | -9%
O=C(Nc1ccc(S(=O)(=O)N2CCCCC2)cc1)c1cnccn1 | -5%
CCCCOC(=O)c1ccc(NS(=O)(=O)c2cc(-c3nnnn3CC)ccc2OC)cc1 | 2%
COc1ccc(NS(=O)(=O)c2cccc(C(=O)NCc3cccnc3)c2)cc1 | 0%
CC(C)(C)NCC(O)COc1cccc2[nH]c(=O)[nH]c12 (stereo unspecified) | -1%&7%
O=C(O)CCCNC(=O)CCn1nnc2ccccc2c1=O | -3%
CCC(=O)Nc1cccc(-n2nnnc2SCC(=O)N(C(C)C)C(C)C)c1 | -3%
O=C(CSc1nc2ccccc2c(=O)[nH]1)Nc1ccc(N2CCOCC2)c(Cl)c1 | 0%
Cc1nc(SCc2ccc(F)cc2)n[nH]1 | -8%
C/C(=N\NC(=O)CN1CCN(Cc2ccc(C)cc2)CC1)c1ccncc1 | -12%
CCCCc1n[nH]c2c1/C(=N/OCC)CC(C)(C)C2 | 4%
COc1ccc(C2/C(=C(/O)c3ccc(S(=O)(=O)N4CCOCC4)cc3)C(=O)C(=O)N2CCN2CCOCC2)cc1 (stereo unspecified) | 3%
COc1ccc(N2CCN(CCN3C(=O)c4ccccc4C3=O)CC2)cc1 | 1%
O=C(COc1ccc([N+](=O)[O-])cc1)NCCc1nc2ccccc2[nH]1 | -11%
COC(=O)c1coc(-c2ccc(OC)cc2)c1C(=O)OC | -8%
Oc1cccc(/C=N/c2c(-c3ccco3)nc3ccccn23)c1 | -24%
CC(=O)c1cccc(NC(=O)c2noc3c2CCc2ccccc2-3)c1 | 1%
CC1(C)C2CCC13CS(=O)(=O)N[C@@H]3C2 (stereo partly specified) | 3%
CN1CCC(N(C)C(=S)NC(=O)C23CC4CC(CC(C4)C2)C3)CC1 | 3%
COc1cccc(NC(=O)Cn2c(=O)n(Cc3ccccc3)c(=O)c3ccccc32)c1 | -15%
c1ccc(Cn2nnc3c(NCCN4CCOCC4)ncnc32)cc1 | -4%
O=C(NC1CCOC1)c1ccc(OC2CCN(CCc3ccccc3)CC2)cc1 (stereo unspecified) | -4%
C=C(C)Cn1cnc2cc(C)c(C)cc21 | -6%
Cc1cccc(NC(=O)CNC(=O)c2cn(Cc3ccccc3)nc2-c2cccnc2)c1C | 2%
CC(NC(=O)c1cccc(S(=O)(=O)N2CCN(C)CC2)c1)C1CC2CCC1C2 (stereo unspecified) | -2%
CCOc1ccc(Br)cc1S(=O)(=O)NCCN1CCCC1 | -17%
COCCC(=O)N1CCCC(CCC(=O)NCc2ccc(F)c(F)c2)C1 (stereo unspecified) | 1%
Cc1cccc(OCc2nnc(N)s2)c1C | -6%
Cc1nc(S(=O)(=O)c2ccc(Cl)cc2Cl)nc2c1CCC2 | 0%

In the list so far, these have a CF3 group:
SMILES | VDR inh
CN1CCc2nc(SCC(=O)Nc3ccc(OC(F)(F)F)cc3)c(C#N)c(-c3cccs3)c2C1 | u
CC1CCN(c2ccc(C(F)(F)F)cc2N)CC1 | 3%
Nc1ncnc(Nc2cc(C(F)(F)F)cc(C(F)(F)F)c2)n1 | -12%
CCOC(=O)C1Nc2c(cc(C(F)(F)F)cc2[N+](=O)[O-])C2c3ccccc3CC12 (stereo unspecified) | -1%

The list goes on.
SMILES | VDR inh
O=C(NC1CCC(O)CC1)c1cccc2cccnc12 (stereo unspecified) | -7%
Cc1oc2ccc(NS(=O)(=O)c3ccccc3)cc2c1C(=O)Nc1ccccc1 | 3%
Cc1cccc(CC(C)NC(=O)CCc2nnc(-c3ccccc3)o2)n1 (stereo unspecified) | 0%
COc1ccc(-n2ccnc(NCCc3ccc(Cl)cc3)c2=O)cc1OC | 7%
CC(NC(=O)c1ccc(C(F)(F)F)cc1)C(c1ccccc1)N1CCOCC1 (stereo unspecified) | 13%
O=S1(=O)CC/C(=N/Nc2ccccn2)c2cc(F)ccc21 | 25%
Cc1ccc(S(=O)(=O)N2CCCC(C(=O)NC3=NCCS3)C2)cc1 (stereo unspecified) | -4%
O=S(=O)(c1cccc2cccnc12)N(CCO)CCO | -19%
O=C(NCc1ccc(Cl)cc1)C1CCCN(c2cnccn2)C1 (stereo unspecified) | -18%
C/C=C\C=C/C(=O)Nc1cccc(C2=NOC3(C2)C[C@@H](C(N)=O)N(C(=O)C2(C)CC2)C3)c1 (stereo partly specified) | u
Cc1ccc2nc(-c3ccc(NC(=O)COCC(=O)O)cc3)sc2c1 | -11%
COc1ccc(Nc2nc(N)nc(CSc3nccc(C)n3)n2)cc1 | 14%
C[C@H](CO)N1C[C@H](C)[C@H](CN(C)S(=O)(=O)c2cn(C)cn2)Oc2ccc(NC(=O)Nc3ccc(C(F)(F)F)cc3)cc2CC1=O | -15%
CCN(CC)C(=O)Cn1ncc2c([nH]c3ccc(C)cc32)c1=O | 13%
O=C(CSc1nc2cc(Cl)ccc2o1)N1CCOCC1 | 3%
Cc1cccc(NC(=S)N(CCCN2CCCC2)Cc2cccn2Cc2ccc(Cl)cc2)c1 | -18%
N#C/C(=C\c1c(N2CCN(c3ccccc3)CC2)nc2ccccn2c1=O)C(N)=O | -1%
CN1C[C@@H]2C[C@@H](C3=Cc4cc(Cl)ccc4OC3)N3CCC[C@@]23C1=O | -13%
COc1ccc(/C=C2\SC(=S)N(C(Cc3ccccc3)C(=O)O)C2=O)cc1 (stereo unspecified) | -17%
CN(C)CCN(C(=O)c1ccc2c(c1)CCCC2)c1nc2cc3c(cc2s1)OCCO3 | -21%
CCOC(=O)c1ccc(NC(=O)CSc2nnc(-c3cccs3)n2CC)cc1 | 0%
O=C(COc1ccc(Cl)cc1)Nc1ccc2[nH]ncc2c1 | 0%
CCOCCOC(=O)C1=C(C)N(C)C(=O)NC1c1cc(Cl)c(O)c(OC)c1 (stereo unspecified) | 31%[activator]
CCSc1nnc(NC(NC(=O)c2ccco2)(C(F)(F)F)C(F)(F)F)s1 | 17%
Cc1cc(C)c(S(=O)(=O)NCC(=O)NCc2ccco2)c(C)c1 | -9%
N#CCC(=O)N/N=C/c1cn(Cc2ccc(Cl)c(Cl)c2)c2ccccc12 | -5%
COc1ccc(CN(C)C(=O)c2ccc(OCC(=O)Nc3cccc(C(F)(F)F)c3)c(OC)c2)c(OC)c1 | -3%
O=c1oc2c3c4c(cc2c(C(F)(F)F)c1CCN1CCOCC1)CCCN4CCC3 | 7%
COc1ccc(NC(=S)N/C(=N/CS(=O)(=O)c2ccccc2)c2ccccc2)cc1 | -12%
CC1(C)CC(=O)c2cc(C(=O)NCc3ccco3)c(=O)n(-c3ccccc3)c2C1 | 5%
Clc1cccc(-c2noc3ncnc(Nc4ccc5c(c4)OCO5)c23)c1 | 0%
COc1cccc2cc(C(=O)NCc3ccc(Cl)cc3)c(=O)oc12 | 25%
O=C1OCC2=C1C(c1ccc(Cl)cc1)CC(=O)N2c1ccc(F)cc1 (stereo unspecified) | -12%
N=C(N)Sc1nc(N2CCCCC2)nc(N2CCCCC2)n1 | -6%
CC1(C)CC(=O)C/C(=N\NC(=O)C2CC2c2ccccc2)C1 (stereo unspecified) | -21%
Cc1nc2ccccc2nc1OCc1ccccc1 | 0%
Cc1ccc(NC(=O)CSc2nc3ccccc3n2CC(=O)N2CCC(C)CC2)cc1C | -15%
CCCCCn1c(CCNC(=O)c2ccc(F)cc2)nc2ccccc21 | -2%
CCC1(C)Cc2c(sc3nc(SC)nc(NCCN(C)C)c23)CO1 (stereo unspecified) | 3%
COc1ccccc1CN1CCN(S(=O)(=O)c2ccccc2)CC1 | -13%
O=C(NC1CC1)C1=C[C@@H](c2ccccc2)C[C@@H](OCc2ccc(CO)cc2)O1 | -1%
Cc1cccc(CCN2C(N(C)C)=NC[C@@H]2CC(C)C)c1 | -5%
Nc1nonc1OCCc1ccccc1 | -8%

These rows are one share of the data, so the mix of outcomes need not match the whole.
